V1aR counter = activates human V1a receptor in oxytocin agonist counter-screen. P37288. CHO-V1R cells, Fluo-8 calcium fluorescence, agonist mode; 0% DMSO, 100% 3 nM vasopressin. activation, % at 3 µM. 320,000 tested, 0.25% active. AID 2797;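 active means activation above the mean activation of all tested compounds plus 3 SD, per screening run, cut at about 20% in these data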;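 further: signal is peak over basal fluorescence ratio across a 100 second FLIPR read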
TAAR1 antagonist = antagonists of human TAAR1; Q96RJ0; CHO RD-HGA16 TAAR1, Fluo-8 calcium fluorescence, antagonist; inhibition, % at 3 µM; 360,000 tested, 1.5% active; AID 624466;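 active means inhibition above a per-plate cutoff, the mean inhibition of test compounds on that plate plus 3 SD, cut at about 49% in these data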;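 further: 0% = DMSO plus EC80 beta-PEA response and 100% = DMSO alone without agonist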
Target sequence (Q96RJ0 whole entry, looked up): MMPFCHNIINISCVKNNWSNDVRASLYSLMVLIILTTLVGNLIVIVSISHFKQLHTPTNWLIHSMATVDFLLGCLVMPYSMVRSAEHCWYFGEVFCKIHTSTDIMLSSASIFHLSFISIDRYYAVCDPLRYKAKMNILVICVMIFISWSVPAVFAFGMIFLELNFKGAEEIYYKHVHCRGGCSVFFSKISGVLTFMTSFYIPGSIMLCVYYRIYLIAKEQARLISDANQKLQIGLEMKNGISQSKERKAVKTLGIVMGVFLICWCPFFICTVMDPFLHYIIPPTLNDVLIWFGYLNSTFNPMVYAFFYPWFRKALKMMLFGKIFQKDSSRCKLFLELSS
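System: RD-HGA16 CHO cells with stable hTAAR1 and Gα16 | Probe or stimulus: EC80 β-phenethylamine stimulus | Dosing: 3 µM, single point | Times: Dye loading 75 min at 37 °C, then 30 min room temperature | Measured by: Fluo-8 calcium-sensitive fluorescence | Read-out basis: % inhibition of agonist calcium response | Replicates: n of 1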
OXTR potentiator = potentiates the human oxytocin receptor response | P30559 | CHO-OTR cells, Fluo-8 calcium fluorescence, potentiator mode; 0% = oxytocin EC15, 100% = EC100 | activation, % at 3 µM | 320,000 tested, 0.061% active | AID 2445;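 active means activation above that plate's cutoff, the mean activation of tested compounds plus 3 SD, cut at about 6.6% in these data, passing the limit was not always enough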;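 further: 100% uses oxytocin at 75 nM as the full agonist control; some results filed as inactive read as strong as hits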
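Assay system: CHO-OTR cells, human receptor / Also added: oxytocin at about EC15, sub-maximal agonist stimulus / Dosing: single dose, 3.0 µM nominal final compound concentration / Incubation: 6 min pre-incubation, 100 s read / Technique: Fluo-8 calcium dye fluorescence / Read-out: % activation vs EC15 and EC100 oxytocin / Benchmarks: EC15 oxytocin low, 75 nM oxytocin high / Replicates: singlicate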
M1 PAM parental = nonselective activator or artifact in parental CHO-K1 calcium assay. ATP EC20, Fluo-8 calcium fluorescence; 0% at ATP EC20, 100% at ATP max. activation, % at 3 µM. 360,000 tested, 0.02% active. AID 602247;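 active means activation above the run cutoff, the mean activation of all test compounds plus 3 SD, cut at about 40% in these data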;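 further: peak over basal fluorescence ratio in a 140 s read after ATP addition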
OXTR agonist = agonists of human oxytocin receptor | P30559 | CHO-OTR cells, Fluo-8 calcium fluorescence; normalized: DMSO 0%, oxytocin 100% | activation, % at 3 µM | 320,000 tested, 0.32% active | AID 2435;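 active means activation above the mean of all tested compounds plus 3 SD, cutoff set per screening run, cut at about 20% in these data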;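 further: peak over basal fluorescence ratio from a 100 s FLIPR kinetic read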
GPR7 antag = human neuropeptides B/W receptor 1 antagonism; GPR7-expressing cells, fluorescence antagonist assay; inhibition, % at 4.4 µM; 290,000 tested, 1.1% active; AID 1861; in the data active means inhibition above about 16%, passing the limit was not always enough;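 further: cells stimulated with the agonist NPW; 0% = agonist with vehicle and 100% = vehicle without agonist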
Target sequence (P48145 whole entry, looked up): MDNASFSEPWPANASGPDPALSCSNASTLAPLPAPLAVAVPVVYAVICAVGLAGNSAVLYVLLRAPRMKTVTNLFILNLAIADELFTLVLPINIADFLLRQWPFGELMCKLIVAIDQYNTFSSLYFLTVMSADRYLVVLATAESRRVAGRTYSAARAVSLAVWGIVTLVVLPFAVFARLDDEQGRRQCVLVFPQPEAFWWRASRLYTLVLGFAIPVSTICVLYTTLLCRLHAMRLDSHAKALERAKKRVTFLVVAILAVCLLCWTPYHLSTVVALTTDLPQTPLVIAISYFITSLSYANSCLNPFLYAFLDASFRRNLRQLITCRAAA
M1 ag parental = nonselective activator or artifact in parental CHO-K1 cells. Fluo-8 calcium fluorescence; scaled to maximal ATP response, vehicle zero. activation, % at 3 µM. 360,000 tested, 0.48% active; in the data active means activation above about 15%;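 further: untransfected CHO-K1 host cells lacking M1 receptor as counterscreen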
Active calls of the source: *; . = not tested or not shown. These rows are one share of the data, so the mix of outcomes need not match the whole.

Key to letters: A = V1aR counter; B = TAAR1 antagonist; C = OXTR potentiator; D = M1 PAM parental; E = OXTR agonist; F = GPR7 antag; G = M1 ag parental
1. CCOC(=O)c1ccc(NC(=O)c2ccc3c(c2)C(=O)N(Cc2cccnc2)C3=O)cc1
  A: 14	B: 16	C: -16	D: 15	E: 11	F: 32*	G: 4.4

2. Cc1nc2ccccc2c(-c2ccccc2)c1CC(=O)O
  A: 0.7	B: 9	C: -5	D: 9	E: 0.2	F: -8	G: -0.2

3. Cc1ccc(C(=O)N(Cc2nc(-c3ccc(C)cc3)no2)C(C)C)cc1
  A: -0.7	B: -32	C: -6	D: 6	E: -1.5	F: -11	G: -0.2

4. CC(=O)c1cccc(NS(=O)(=O)c2ccc(N/C=C\C(=O)c3ccc(F)cc3)cc2)c1
  A: 9.7	B: 70*	C: -20	D: -11	E: 5.5	F: -2	G: 0.7

5. O=C(Nc1ccc(Cl)c(Cl)c1)Nc1ccccc1O
  A: 7.8	B: 26	C: -23	D: -9	E: 4.2	F: 12	G: 13

6. O=C(c1cc(COc2ccc3ncccc3c2)on1)N1CCCCCC1
  A: 8.4	B: 15	C: -32	D: 2	E: 12	F: -8	G: 13

7. O=C(COc1cc(Cl)c(Cl)cc1Cl)Nc1ccncc1
  A: 14	B: 26	C: -22	D: 19	E: 17	F: -18	G: 5.0

8. CCN1CCN(C(=O)c2ccc(NS(=O)(=O)c3ccccc3)cc2)CC1
  A: -0.4	B: 6	C: 0	D: .	E: 0.2	F: -7	G: .

9. O=S(=O)(c1ccc(F)cc1)n1cnc2ccccc21
  A: 0.0	B: -5	C: -11	D: 6	E: -1.2	F: -13	G: -0.4

10. CCC(C)c1ccc(C(C)NC(=S)NC2CCCCC2)cc1 (stereo not given)
  A: 6.8	B: 12	C: -13	D: 6	E: 6.4	F: 46*	G: 8.5

11. Cn1c(=O)n(C)c2cc(N3CCCCC3)c(NC(=O)c3ccccc3)cc21
  A: -0.8	B: -41	C: -5	D: 17	E: -1.4	F: -7	G: 0.4

12. Nc1nonc1C(=O)NCCNCc1cc(Br)ccc1OCc1ccccc1F
  A: 8.9	B: 51*	C: -7	D: -4	E: 14	F: 77*	G: 12

13. CCN(c1cccc(C)c1)S(=O)(=O)c1ccc2c(c1)NC(=O)CS2
  A: -1.3	B: -24	C: -5	D: -14	E: -0.8	F: -24	G: -0.5

14. O=C(O)c1cc(S(=O)(=O)N2CC=C(c3ccccc3)CC2)ccc1O
  A: -0.1	B: -7	C: 1	D: -5	E: -0.2	F: .	G: 9.2

15. Cn1c(=O)c2cc(S(=O)(=O)Nc3cccc(F)c3)ccc2n(C)c1=O
  A: 1.4	B: -2	C: -5	D: 15	E: 1.9	F: -13	G: 0.9

16. Nc1nccc(/C=C/c2c(Cl)cccc2Cl)n1
  A: -1.3	B: -4	C: -6	D: 7	E: -3.0	F: -12	G: -0.5

17. N#Cc1ccc(OCC(O)CN2CCC(C(O)(c3ccccc3)c3ccccc3)CC2)cc1 (stereo not given)
  A: 3.7	B: -3	C: -9	D: 7	E: 8.5	F: 4	G: 9.8

18. c1ccc(-c2ccc(-c3cn4c(n3)CCC4)cc2)cc1
  A: 7.4	B: 8	C: -21	D: 12	E: 7.3	F: -10	G: 6.3

19. CC(C)NC(=O)C1CCN(C(=O)c2cc3sccc3n2Cc2ccc(F)cc2)CC1
  A: 8.9	B: .	C: -5	D: 14	E: 17	F: 13	G: 8.0

20. C=C(CN(C)C)C(=O)c1cc(OC)c(OC)cc1OC
  A: .	B: -16	C: .	D: -16	E: .	F: .	G: -0.1

21. CN1/C(=C\C=N\NC(=O)c2ccc(O)cc2)C(C)(C)c2ccccc21
  A: 3.9	B: 9	C: -10	D: 3	E: 3.9	F: -6	G: 5.0

22. O=C(OCC#CCSc1nc2ccccc2o1)c1cc2ccccc2o1
  A: 2.0	B: 28	C: -9	D: 13	E: 1.1	F: -12	G: 1.1

23. COc1ccc(OCc2nnc(SCC(=O)c3c(N)n(C)c(=O)n(C)c3=O)n2-c2ccccc2F)cc1
  A: -0.4	B: .	C: 1	D: .	E: 0.5	F: -8	G: .

24. CC(C)(C)OC(=O)NCCCCCc1nnc(SCC(=O)Nc2cccc(Cl)c2)o1
  A: 11	B: 41	C: -10	D: 18	E: 14	F: 17	G: 9.8

25. N#Cc1c(-c2ccc(Cl)cc2)c(-c2ccc(Cl)cc2)nn(CCO)c1=O
  A: .	B: -10	C: .	D: 8	E: .	F: .	G: -0.7

26. C=CCn1c(SCc2csc(-c3ccc(Cl)cc3)n2)nnc1-c1ccccc1OC
  A: 0.8	B: 2	C: -7	D: -4	E: -1.7	F: 9	G: 0.5

27. O=C(O)[C@@H]1CCCC[C@@H]1C(=O)N1CCc2ccccc2C1CN1C(=O)c2ccccc2C1=O (stereo not given in full)
  A: -0.9	B: -8	C: -7	D: 9	E: -0.8	F: -1	G: 0.0

Already shown: ten of the compounds above.
Key to letters: A = V1aR counter; B = TAAR1 antagonist; C = OXTR potentiator; D = M1 PAM parental; E = OXTR agonist; F = GPR7 antag; G = M1 ag parental
18. c1ccc(-c2ccc(-c3cn4c(n3)CCC4)cc2)cc1
  A: 7.4	B: 8	C: -21	D: 12	E: 7.3	F: -10	G: 6.3

19. CC(C)NC(=O)C1CCN(C(=O)c2cc3sccc3n2Cc2ccc(F)cc2)CC1
  A: 8.9	B: .	C: -5	D: 14	E: 17	F: 13	G: 8.0

20. C=C(CN(C)C)C(=O)c1cc(OC)c(OC)cc1OC
  A: .	B: -16	C: .	D: -16	E: .	F: .	G: -0.1

21. CN1/C(=C\C=N\NC(=O)c2ccc(O)cc2)C(C)(C)c2ccccc21
  A: 3.9	B: 9	C: -10	D: 3	E: 3.9	F: -6	G: 5.0

22. O=C(OCC#CCSc1nc2ccccc2o1)c1cc2ccccc2o1
  A: 2.0	B: 28	C: -9	D: 13	E: 1.1	F: -12	G: 1.1

23. COc1ccc(OCc2nnc(SCC(=O)c3c(N)n(C)c(=O)n(C)c3=O)n2-c2ccccc2F)cc1
  A: -0.4	B: .	C: 1	D: .	E: 0.5	F: -8	G: .

24. CC(C)(C)OC(=O)NCCCCCc1nnc(SCC(=O)Nc2cccc(Cl)c2)o1
  A: 11	B: 41	C: -10	D: 18	E: 14	F: 17	G: 9.8

25. N#Cc1c(-c2ccc(Cl)cc2)c(-c2ccc(Cl)cc2)nn(CCO)c1=O
  A: .	B: -10	C: .	D: 8	E: .	F: .	G: -0.7

26. C=CCn1c(SCc2csc(-c3ccc(Cl)cc3)n2)nnc1-c1ccccc1OC
  A: 0.8	B: 2	C: -7	D: -4	E: -1.7	F: 9	G: 0.5

27. O=C(O)[C@@H]1CCCC[C@@H]1C(=O)N1CCc2ccccc2C1CN1C(=O)c2ccccc2C1=O (stereo not given in full)
  A: -0.9	B: -8	C: -7	D: 9	E: -0.8	F: -1	G: 0.0

Screening results: PubChem BioAssay, The Scripps Research Institute Molecular Screening Center
